Screens from PubChem.
Ecoli rRNA inh = inhibitors of bacterial rRNA selective over humanized ribosomes; E. coli WT GFP vs humanized-ribosome RFP mutants, fluorescence, 24 h; hits give low values; DMSO median 0, no signal -100; GFP signal change (wild-type ribosome), % (no concentration beside the values); 350,000 tested, 1.6% active;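 active means significant combined selectivity score with lowered wild-type GFP, culture density cut under 30%, mutant RFP and density less affected; inactive means any of these conditions unmet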; further: one replicate is shown; some compounds called inactive have numbers as strong as hits
Ecoli rRNA inh OD600 = also measured in Ecoli rRNA inh; calls as there; OD600 change, %; measured here: OD600 growth;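 optical density of the mix in the first replicate; 0 = DMSO median and -100 = no signal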
Ecoli rRNA inh RFP = second read-out of Ecoli rRNA inh, no call of its own (marks repeat the call); RFP signal change, %; measured here: RFP humanized mutant strains;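 first replicate; 0 = DMSO median and -100 = no signal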
The depositor's hits bear a star; & = joins results of further samples. This is a subset, so the mix of outcomes need not match the whole.

| canonical_smiles | Ecoli rRNA inh | Ecoli rRNA inh OD600 | Ecoli rRNA inh RFP |
| --- | --- | --- | --- |
| C[C@@H]1CN([C@@H](C)CO)S(=O)(=O)c2ccc(-c3cncnc3)cc2O[C@H]1CN(C)C(=O)Cc1cccnc1 | 3 | 15 | 1.0 |
| CCNC(=O)C[C@@H]1CC[C@@H]2[C@@H](COc3ccc(NC(=O)Nc4ccccc4OC)cc3C(=O)N2C)O1 | 1 | 2 | 1.8 |
| CCC(=O)N(C)C[C@@H]1Oc2ncc(C#Cc3ccccc3OC)cc2C(=O)N([C@H](C)CO)C[C@H]1C | -2 | 0 | -1.7 |
| CC1CCC(N(C)C(=O)CN2C(=O)NC(c3ccccc3)(c3ccccc3)C2=O)CC1 (stereo unspecified) | -15 | -45 | -3.3 |
| COc1ccc(NC(=O)N(C)C[C@H]2Oc3ccc(NC(=O)CCN4CCOCC4)cc3CC(=O)N([C@H](C)CO)C[C@H]2C)cc1 | 1 | 15 | 2.6 |
| COc1ccc2c3c(n(C)c2c1)[C@@H](CO)N(Cc1ccccc1)CC31CCN(S(=O)(=O)c2ccc(C)cc2)CC1 | -33 | -64 | 2.9 |
| CO[C@@H]1CN(C)C(=O)c2cc(NC(=O)Nc3ccc(Cl)cc3)ccc2OC[C@@H](C)N(C(=O)Nc2c(C)noc2C)C[C@H]1C | -3 | -3 | 1.9 |
| C[C@H](CO)N1C[C@H](C)[C@@H](CN(C)C)Oc2ncc(-c3cccc(C#N)c3)cc2C1=O | 7 | 1 | -2.2 |
| CO[C@@H]1CN(C)C(=O)c2cc(NC(=O)C3CCC3)ccc2OC[C@@H](C)N(Cc2ccc(F)cc2)C[C@@H]1C | 0 | -18 | 6.3 |
| COc1ccc(S(=O)(=O)N2CCCCC2c2cc(C(=O)NCc3cccnc3)no2)cc1 (stereo unspecified) | -2 | -6 | 0.6 |
| CC(C)C#Cc1cnc2c(c1)C(=O)N([C@@H](C)CO)C[C@@H](C)[C@H](CN(C)Cc1cccc(F)c1)O2 | -32&0 | -49&-1 | 11&1.9 |
| COc1ccccc1C(=O)N1C[C@H]2[C@@H](c3ccccc31)[C@@H](CO)N2CC1CCCC1 | -29 | -48 | -9.6 |
| O=C([C@H]1[C@H](CO)[C@H]2Cn3c(ccc(-c4ccncc4)c3=O)[C@@H]1N2Cc1ccccc1)N1CCOCC1 | 1 | 6 | -2.0 |
| C[C@H](CO)N1C[C@H](C)[C@@H](CN(C)C(=O)Nc2ccc(C(F)(F)F)cc2)Oc2ccc(N(C)C)cc2CC1=O | -2 | -3 | -3.1 |
| C[C@H](CO)N1C[C@H](C)[C@@H](CN(C)C(=O)c2cccnc2)Oc2ncc(-c3ccccc3)cc2C1=O | -3 | -7 | -0.5 |
| COc1ccc(NC(=O)N(C)C[C@@H]2Oc3ccc(NS(=O)(=O)c4ccc(Cl)cc4)cc3C(=O)N([C@@H](C)CO)C[C@H]2C)cc1 | -1 | 2 | -1.1 |
| CCNC(=O)Nc1ccc2c(c1)C(=O)N(C)[C@H]1CC[C@H](CC(=O)NCc3ccc(F)cc3)O[C@H]1CO2 | 4 | 0 | -0.8 |
| COCCCNc1ccn2nc(-c3ccccc3)cc2n1 | -20* | -5.3* | 1.2* |
| C[C@H](CO)N1C[C@H](C)[C@H](CN(C)C(=O)C2CCOCC2)Oc2ncc(-c3cccnc3)cc2C1=O | 1 | 1 | -2.8 |
| O=C(C1CCOCC1)N1CC(=O)N2[C@H](CO)[C@H](c3ccc(C#Cc4cccc(F)c4)cc3)[C@@H]2C1 | 2 | 6 | -1.6 |
| COc1ccc(-c2ccc([C@@H]3[C@H](C#N)N(C(=O)NC4CCCCC4)[C@H]3CO)cc2)cc1 | -4 | -14 | 0.5 |
| O=C1CN(S(=O)(=O)c2cccc(F)c2)C[C@@H]2[C@H](c3ccc(-c4ccccc4)cc3)[C@@H](CO)N12 | 2 | -43 | 11 |
| COC(=O)C1=C(C)N(Cc2ccccc2C(F)(F)F)C(=NCc2ccc(C(F)(F)F)cc2)NC1c1ccc(C(F)(F)F)cc1 (stereo unspecified) | -12 | -3 | 8.4 |
| CC1(C(=O)O)CCCN(C(=O)c2cc3ccccc3s2)C1 (stereo unspecified) | -6 | -4 | -0.9 |
| COCCNC(=O)C[C@H]1CC[C@@H]2[C@@H](COc3ccc(NC(=O)C4CCOCC4)cc3C(=O)N2C)O1 | 0 | 3 | 0.2 |
| Cc1ccc([C@H]2N[C@]3(CCCN(Cc4ccc(Cl)cc4)C3=O)[C@H]3C(=O)N(C)C(=O)[C@@H]23)cc1 | -1 | -16 | -4.3 |
| Nc1nc2c(ncn2[C@@H]2O[C@H](C(=O)NCCCc3ccccc3)[C@@H](O)[C@H]2O)c(=O)[nH]1 | 6 | 11 | 4.7 |
| Cn1cnc(S(=O)(=O)N2CC[C@@H]3[C@H](CO)Nc4ccc(-c5ccccc5)cc4[C@@H]32)c1 | -4 | 1 | -0.3 |
| O=C(c1ccccn1)N1CC(=O)N2[C@H](C1)[C@@H](c1ccc(C#Cc3ccccc3)cc1)[C@@H]2CO | 0 | -36 | 16 |
| COCC#Cc1cnc2c(c1)C(=O)N([C@@H](C)CO)C[C@H](C)[C@@H](CN(C)C(=O)Nc1ccccc1OC)O2 | 1 | 2 | -0.4 |
| CCc1ccc([C@@H]2C[C@H]3[C@@H](CN2S(=O)(=O)c2ccc(C)cc2)C(=O)C[C@@H](c2ccccc2F)N3S(=O)(=O)c2ccc(C)cc2)cc1 | 31 | 11 | 1.0 |
| C[C@@H]1CN([C@@H](C)CO)C(=O)c2cc(C#CCC3CCCC3)cnc2O[C@@H]1CN(C)S(=O)(=O)c1cccs1 | 2 | 4 | -0.2 |
| C[C@@H]1CN([C@H](C)CO)C(=O)c2cc(N(C)C)ccc2O[C@@H](C)CCCCO[C@@H]1CN(C)C(=O)c1ccccc1 | 5 | 5 | 0.5 |
| CC(C)NC(=O)N1CC(=O)N2[C@H](CO)[C@H](c3ccc(C#CCN(C)C)cc3)[C@@H]2C1 | 0 | 1 | -1.2 |
| O=S(=O)(c1ccccc1F)N1CCCCN2[C@H](C1)[C@H](c1ccc(-c3cncnc3)cc1)[C@@H]2CO | -8 | -19 | -0.2 |
| C[C@H]1CN([C@@H](C)CO)C(=O)c2cc(-c3ccncc3)cnc2O[C@@H]1CN(C)S(=O)(=O)c1ccccc1 | -2 | -5 | -4.0 |
| COc1cccc(C(=O)Nc2ccc3c(c2)C(=O)N(C)[C@@H]2CC[C@@H](CC(=O)NCc4ccc(F)cc4)O[C@@H]2CO3)c1 | -5 | -12 | 1.2 |
| COC(=O)c1ccc2nc(C3CCCCC3)c(Cc3ccccc3OC)n2c1 | -6 | -41 | -7.0 |
| CCn1cc(/C=C(\NC(=O)c2ccccc2F)C(=O)N2CCN(C)CC2)c2ccccc21 | 12 | 8 | 3.2 |
| COc1ccc(C(C#N)CC(=O)c2ccc3c(c2)OCO3)cc1OC (stereo unspecified) | -5 | -8 | 3.4 |
| COc1cccc(-c2ccc(C3[C@@H]4CN(S(=O)(=O)c5ccccc5F)C[C@H]3N4)cc2)c1 (stereo partly specified) | -40 | -64 | 11 |
| CO[C@H]1CN(C)C(=O)c2ccc(NS(=O)(=O)c3cccc(F)c3)cc2OC[C@@H](C)N(Cc2cc(F)ccc2F)C[C@H]1C | -4 | -9 | 6.0 |
| O=C1NC[C@H](CCCCN2CCN(Cc3ccccc3)C(=O)C2=O)N(Cc2ccccc2)C1=O | 0 | 8 | -1.4 |
| Cc1noc(C)c1NC(=O)N(C)C[C@@H]1Oc2ccc(NC(=O)CCC(F)(F)F)cc2C(=O)N([C@H](C)CO)C[C@H]1C | 2 | 3 | 0.8 |
| O=S(=O)(c1ccccc1)N1C[C@H]2[C@@H](c3ccccc31)[C@@H](CO)N2Cc1ccccn1 | -3 | 4 | 3.4 |
| Cc1noc(C)c1S(=O)(=O)Nc1ccc2c(c1)C(=O)N([C@H](C)CO)C[C@@H](C)[C@H](CN(C)C(=O)Nc1ccc(F)cc1)OCCCC[C@@H](C)O2 | 0 | -7 | 1.9 |
| CC(=O)C1=CCC(c2cccs2)N(S(=O)(=O)c2ccc(C)cc2)C1 (stereo unspecified) | 3 | -21 | -9.6 |
| CCN(CC)C(=O)C1=C(C)N(CCCN2CCCC2=O)C(=O)C(CC(=O)NC2CCCCC2)C1 (stereo unspecified) | 4 | 11 | -0.8 |
| Cc1ccc(S(=O)(=O)N(C)C[C@@H]2Oc3ccc(NC(=O)NC4CCCCC4)cc3CC(=O)N([C@@H](C)CO)C[C@@H]2C)cc1 | -2 | -4 | -1.2 |
| C[C@H](NC(=O)C[C@@H]1C[C@@H]2c3cc(NC(=O)Nc4ccc(C(F)(F)F)cc4)ccc3O[C@@H]2[C@@H](CO)O1)c1ccccc1 | -3 | -4 | -0.8 |

Going on with the list.
compound	Ecoli rRNA inh	Ecoli rRNA inh OD600	Ecoli rRNA inh RFP
Cc1cn([C@H]2C[C@H](O)[C@@H](CCC(=O)NCCc3cccs3)O2)c(=O)[nH]c1=O	3	7	-5.1
Cc1nnc2nc(N)[nH]n2c1=O	8	10	-0.9
C[C@@H]1CN([C@@H](C)CO)C(=O)c2cc(NC(=O)NC3CCCCC3)ccc2O[C@@H]1CN(C)C	8	4	2.5
COc1cccc(S(=O)(=O)Nc2ccc3c(c2)[C@@H]2C[C@H](CC(=O)NC4CCCCC4)O[C@H](CO)[C@@H]2O3)c1	-5	-17	-0.9
COc1cccc(C(O)c2nc(/C=C/c3ccccc3)cs2)c1 (stereo unspecified)	-54	-78	-17
C[C@@H]1CN([C@@H](C)CO)C(=O)c2cccc(NS(C)(=O)=O)c2O[C@@H]1CN(C)Cc1ccc(Oc2ccccc2)cc1	6	-1	0.0
C[C@@H]1CN([C@@H](C)CO)C(=O)c2cc(/C=C/c3ccccc3)cnc2O[C@@H]1CN(C)S(=O)(=O)c1ccc(F)cc1	1&2	6&-10	1.2&4.8
C[C@H]1CN([C@@H](C)CO)C(=O)Cc2cc(NS(=O)(=O)c3ccc(F)cc3)ccc2O[C@@H]1CN(C)Cc1ccc(C(F)(F)F)cc1	0	-2	5.3
COc1cccc(C=C(C(C)=O)C(=O)c2ccccc2)c1	-1	10	1.8
O=C(NCc1cccc(F)c1)[C@@H]1[C@@H](CO)[C@@H]2Cn3c(ccc(-c4ccncc4)c3=O)[C@H]1N2CC1CC1	1	3	0.7
CN(C)C(=O)C[C@@H]1CC[C@@H]2[C@H](COC[C@@H](O)CN2C(=O)C2CCCC2)O1	3	-4	26
C=CCN=C1NC(CCc2ccccc2)C(C(=O)OC)=C(C)N1C (stereo unspecified)	14	20	2.2

Complete entries as entered above. Screens in order: Ecoli rRNA inh	Ecoli rRNA inh OD600	Ecoli rRNA inh RFP
`O=C(NCc1cccc(F)c1)[C@@H]1[C@@H](CO)[C@@H]2Cn3c(ccc(-c4ccncc4)c3=O)[C@H]1N2CC1CC1` across the screens: 1	3	0.7
`C=CCN=C1NC(CCc2ccccc2)C(C(=O)OC)=C(C)N1C` (stereo unspecified) across the screens: 14	20	2.2

The listing picks up, starting five compounds before the break.
compound	Ecoli rRNA inh	Ecoli rRNA inh OD600	Ecoli rRNA inh RFP
C[C@H]1CN([C@@H](C)CO)C(=O)Cc2cc(NS(=O)(=O)c3ccc(F)cc3)ccc2O[C@@H]1CN(C)Cc1ccc(C(F)(F)F)cc1	0	-2	5.3
COc1cccc(C=C(C(C)=O)C(=O)c2ccccc2)c1	-1	10	1.8
O=C(NCc1cccc(F)c1)[C@@H]1[C@@H](CO)[C@@H]2Cn3c(ccc(-c4ccncc4)c3=O)[C@H]1N2CC1CC1	1	3	0.7
CN(C)C(=O)C[C@@H]1CC[C@@H]2[C@H](COC[C@@H](O)CN2C(=O)C2CCCC2)O1	3	-4	26
C=CCN=C1NC(CCc2ccccc2)C(C(=O)OC)=C(C)N1C (stereo unspecified)	14	20	2.2
C[C@H]1CN([C@@H](C)CO)S(=O)(=O)c2ccc(-c3ccc(F)cc3)cc2O[C@@H]1CN(C)C(=O)C1CCC1	-15	-42	7.6
CCCCC(=O)N(C)c1c(C)nc2ccc(C(=O)NCc3ccccc3OC)cn12	23	28	-1.2
COc1ccc(S(=O)(=O)N2CCC[C@H]2C(=O)N2CCC[C@H]2C(=O)NCc2ccccn2)cc1C	5	6	-2.2
C[C@H](CO)N1C[C@H](C)[C@H](CN(C)Cc2ccc(Cl)c(Cl)c2)Oc2ccc(NC(=O)Nc3ccc4c(c3)OCO4)cc2CC1=O	0	-9	2.6
C/C=C/c1ccc([C@@H]2[C@H](CO)N(C(=O)CC)[C@H]2CNC(=O)C2CC2)cc1	0	1	-0.1
COc1ccccc1-c1ccc2c(c1)O[C@H](CN(C)C(=O)c1ccncc1)[C@H](C)CN([C@H](C)CO)S2(=O)=O	-1	-13	0.9
CNC[C@H]1Oc2c(NC(=O)C3CCOCC3)cccc2C(=O)N([C@H](C)CO)C[C@H]1C	3	7	3.8
CCC(=O)Nc1ccc2c(c1)C(=O)N(C)C[C@@H](OC)[C@H](C)CN(C(=O)CC1CC1)[C@@H](C)CO2	1	-6	0.5
COc1ccc(CN(C)C[C@@H]2Oc3ccc(NC(=O)Nc4ccc(C(F)(F)F)cc4)cc3C(=O)N([C@@H](C)CO)C[C@@H]2C)cc1	-32	-28	26
COc1ccccc1-c1ccc([C@@H]2[C@H](CO)N3CCCCN(C(=O)CN4CCOCC4)C[C@@H]23)cc1	2	12	-3.9
CCOC(=O)[C@]12CCCC=C1N(Cc1ccc3c(c1)OCO3)C(=O)[C@H](CC(=O)N1CCSCC1)C2	-10	-21	1.8
O=C(N[C@@H]1CC[C@@H](CCNS(=O)(=O)Cc2ccccc2)O[C@H]1CO)c1cnccn1	1	2	-2.0
C[C@H]1CN([C@@H](C)CO)C(=O)Cc2cc(NS(=O)(=O)c3ccc(F)cc3)ccc2O[C@@H]1CN(C)C(=O)Nc1cccc2ccccc12	-3	-3	1.5
CC(=O)Nc1ccc(-c2ccnc3c2CC(C)(C(=O)NCCC(F)(F)F)O3)cc1 (stereo unspecified)	-8	-47	-16
COc1ccc(CN2C(=O)c3cccc4cccc(c34)C2c2nc3ccccc3[nH]2)cc1 (stereo unspecified)	-18	-13	2.9
